# GLA inh pH 4.5: blocks human alpha-galactosidase A at pH 4.5; P06280; purified enzyme, 4-MU-alpha-Gal fluorescence, pH 4.5; activity change, negative = inhibition, % at 105 µM; 230,000 tested, under 10 active; AID 1467; inconclusive = small, poorly fitted or top-dose-only inhibition, or a rising curve; inactive = flat fitted curve, though single readings scatter; no compound was filed as active;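 further: 0% = full activity with enzyme and -100% = basal without enzyme; dose as in the result columns while the protocol names 77 µM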
# Rango complex inh: Rango-importin beta binding inhibition | Rango CFP/YFP FRET sensor + importin beta, 45 min | Potency, µM (titrated, usually from 92.2 µM), for inactives: at the top dose inhibition of complex formation | actives 0.031% (n = 340,000) | AID 540263; active = rising FRET ratio curve, often small or poorly fitted; inconclusive = mostly compound fluorescence or quenching in the first reads; inactive = flat curves in all reads;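 further: potency means the concentration at half of the fitted maximal effect; 0% = DMSO wells and 100% = buffer wells lacking importin beta; nearly all actives have a fitted effect of over 15% in size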
# Target sequence (Q14974 whole entry, looked up): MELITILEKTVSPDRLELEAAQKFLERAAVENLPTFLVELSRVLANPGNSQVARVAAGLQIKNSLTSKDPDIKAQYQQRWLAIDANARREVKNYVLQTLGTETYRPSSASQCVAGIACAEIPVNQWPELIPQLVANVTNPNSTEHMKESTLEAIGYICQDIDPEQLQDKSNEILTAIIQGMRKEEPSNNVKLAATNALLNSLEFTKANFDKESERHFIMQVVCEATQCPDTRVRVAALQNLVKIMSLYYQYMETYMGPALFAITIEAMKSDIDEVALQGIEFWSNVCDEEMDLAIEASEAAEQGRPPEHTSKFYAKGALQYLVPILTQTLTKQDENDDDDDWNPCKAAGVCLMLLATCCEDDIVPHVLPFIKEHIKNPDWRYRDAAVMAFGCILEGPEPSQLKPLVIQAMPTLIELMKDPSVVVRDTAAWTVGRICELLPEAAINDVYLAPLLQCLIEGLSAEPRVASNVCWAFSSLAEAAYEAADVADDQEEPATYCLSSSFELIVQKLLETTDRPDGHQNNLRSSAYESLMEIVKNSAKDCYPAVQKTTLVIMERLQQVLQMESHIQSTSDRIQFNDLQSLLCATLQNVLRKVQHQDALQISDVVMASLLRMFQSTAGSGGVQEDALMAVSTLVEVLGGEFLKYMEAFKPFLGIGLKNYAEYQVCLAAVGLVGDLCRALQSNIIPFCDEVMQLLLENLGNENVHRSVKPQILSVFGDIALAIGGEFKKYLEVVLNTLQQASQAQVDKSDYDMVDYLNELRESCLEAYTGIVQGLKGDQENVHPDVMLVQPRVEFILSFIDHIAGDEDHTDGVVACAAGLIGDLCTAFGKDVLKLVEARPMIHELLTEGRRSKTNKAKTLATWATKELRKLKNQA
#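 FRET biosensor (snurportin 1 IBB flanked by EYFP and cerulean), 50 nM, with compound 5 min, then 0.125 microM importin beta in PBS, 1 mM DTT, 0.02% Tween-20, 0.1% BSA. CFP/YFP ratio read after 45 min at room temperature; pre-read flags interference.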
# Rango dissoc inh: inhibition of RanGTP-driven Rango-importin beta dissociation; Biochemical FRET Rango-importin beta, RanGTP-induced dissociation; Potency, µM (highest dose often 46.1 µM), for the others: at the top dose activity change, negative = inhibition; O95149+P62826; AID 540253; actives 0.071% (n = 340,000); active means falling FRET ratio curve, often poorly fitted, with flat reads before Ran was added; inconclusive means other falling curves, or compound fluorescence or quenching; inactive means flat or rising ratio curve;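 further: potency means the concentration at half of the fitted maximal effect; % of control where 0% means no effect; nearly all actives have a fitted effect of over 45% in size; -100% = wells without RanGTP and RCC1; the record marks most hits as doubtful in a second field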
#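 Compounds preincubate 5 min with complex of recombinant Rango and importin beta in PBS with 1 mM DTT. Ran (0.6 uM) loaded with 2 mM GTP plus 0.2 uM RCC1 starts dissociation; FRET is recorded 45 min later.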
# miR-21 FLuc: raises the signal of a miR-21 reporter. HeLa miR-21 FLuc reporter, luciferase, 48 h. Potency, µM (top dose mostly 38.3 µM), for the others: at the top dose reporter change, positive = more light. 340,000 tested, under 10 active. AID 2288; active = well fitted rising curve with a large enough effect; inconclusive = small, poorly fitted or top-dose-only effect; inactive = no such curve, though single readings can be large or run the other way;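 further: % of control where 0% means no effect; miR-21 action dims this reporter so a rising signal means less miR-21 action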
#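 Using DMEM plus 10% FBS, HeLa miR-21-FLuc cells are incubated with test compounds (final up to about 40uM) for 48 hours; firefly luciferase signal is then imaged following reagent-mediated lysis.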
# * = called active by the depositor; ? = inconclusive; · = not tested or not shown; & = joins results of further samples. The list is partial, so the mix of outcomes need not match the whole.
# Results follow in this order: GLA inh pH 4.5, Rango complex inh, Rango dissoc inh, miR-21 FLuc
CC(=O)N1C(=O)C2(C(C#N)=C(N)Oc3n[nH]c(-c4ccccn4)c32)c2ccccc21 (centres undefined)
  -1, -2.4%, 24%, 0%
Cc1cccc(C(=O)OCC(=O)c2c(N)n(CC(C)C)c(=O)n(C)c2=O)c1O
  ·, -1.1%, -3%, ·
O=C(COc1ccc(Cl)cc1)Nc1c(-c2cccs2)nc2ccccn12
  -10, ?, -19%, -22%
CCCCC1=CC2=CC(=O)C(C)(OC(=O)CC)C(=O)C2=CN1CCOC (centres undefined)
  -2&-17, ?, ?, 1%
CCn1c(CCC(=O)Nc2nc3c(s2)CCCC3)nc2cc(S(=O)(=O)N(C)C)ccc21
  -5, -5.0%, -14%, 0%
CCc1ccc(S(=O)(=O)NCc2cccs2)cc1
  ·, 2.2%, -3%, -4%
O=S(=O)(c1ccc2nc(N3CCN(c4ccc(F)cc4)CC3)ccc2c1)N1CCCCC1
  ·, -0.6%, 16%, -1%
Cc1ccccc1C(=O)NCc1nnc(SCC(=O)N2c3ccccc3Sc3ccccc32)n1C
  0, 2.1%, 1%, 4%
O=C(CCl)Nc1cc(SCC(O)CO)cc([N+](=O)[O-])c1 (centres undefined)
  3, 5.2%, -12%, ?
Cc1nnc(SCC(=O)Nc2cccc(S(=O)(=O)NC3=NCCCCC3)c2)n1Cc1ccccc1
  -29, -0.6%, 0%, 0%
CCC1(c2ccccc2)NC(=O)N(CC(=O)Nc2cccnc2Cl)C1=O (centres undefined)
  ·, 0.9%, -14%, ·
Cc1sc(-c2ccccn2)nc1OC(=O)c1ccc(Cl)cc1
  -2, 4.2%, -19%, -3%
CCOC(=O)C1=C(CC)Nc2ccccc2N/C1=N\S(=O)(=O)c1cc(Br)ccc1Br
  -5, -0.7%, -18%, 17%
COc1ccc(-c2nn(-c3ccccc3)cc2/C=N/Nc2ccccn2)cc1OC
  3, -1.9%, -24%, 3%
c1csc(CNCCN2CCOCC2)c1
  8, 2.0%, 6%, -2%
COC(=O)[C@]1(C)N[C@H](CN(C)C(=O)Nc2ccc(Cl)cc2)[C@@H]2C(=O)N(Cc3ccccc3)C(=O)[C@@H]21
  ·, 4.9%, 10%, ·
O=C(c1ccc(C(F)(F)F)cc1)C1CCCN(C(=O)Cn2cncn2)C1 (centres undefined)
  ·, 4.8%, 18%, 3%
NC(=O)C1(N2CCCCC2)CCN(S(=O)(=O)c2cc(Cl)sc2Cl)CC1
  -8, -4.1%, 9%, 1%
Brc1ccccc1/C=N/N1CCCCC1
  ·, 0.2%, -20%, 0%
COC(=O)c1c(-c2ccc(F)cc2)csc1NC(=O)C1CCCO1 (centres undefined)
  -1, 3.3%, 15%, -59%

# Part of the list above in order of formula weight, highest first.
# Results follow in this order: GLA inh pH 4.5, Rango complex inh, Rango dissoc inh, miR-21 FLuc
COC(=O)[C@]1(C)N[C@H](CN(C)C(=O)Nc2ccc(Cl)cc2)[C@@H]2C(=O)N(Cc3ccccc3)C(=O)[C@@H]21
  ·, 4.9%, 10%, ·
O=S(=O)(c1ccc2nc(N3CCN(c4ccc(F)cc4)CC3)ccc2c1)N1CCCCC1
  ·, -0.6%, 16%, -1%
COC(=O)c1c(-c2ccc(F)cc2)csc1NC(=O)C1CCCO1 (centres undefined)
  -1, 3.3%, 15%, -59%

# Remaining list, next part
# Results follow in this order: GLA inh pH 4.5, Rango complex inh, Rango dissoc inh, miR-21 FLuc
COc1cccc(-c2nnc3sc(-c4ccccc4)nn23)c1
  9, -1.1%, -2%, -11%
Cc1c(CN2CCN(CC(C)(C)C)C(CCO)C2)[nH]c2ccccc12 (centres undefined)
  ·, 0.0%, -11%, 0%
COc1ccc2cc1Oc1ccc(cc1)C[C@H]1c3c(cc4c(c3Oc3cc5c(cc3OC)CCN(C)[C@@H]5C2)OCO4)CCN1C
  -6&-2, -1.0%, -24%, ?
O=[N+]([O-])c1ccc(O)c(CNCc2ccccc2)c1
  ·, 1.0%, -11%, ·
COCCCNC(=O)COC(=O)c1ccc(-c2nc3ccccc3s2)s1
  12, -2.2%, -32%, -27%
CCC(C)c1ccc(NC(=S)NCCn2cc(Cl)cn2)cc1 (centres undefined)
  -9, -1.6%, 4%, -6%
Cc1cc(C)nc(Nc2ccc(C(=O)O)cc2)n1
  -2, -0.5%, 0%, -28%
CC(C)Cn1c(SCC(=O)NC(=O)NC2CCCC2)nc2ccccc21
  -8, 1.9%, 19%, 13%
CCN1CCN(c2ccc(S(=O)(=O)N3CCOCC3)cc2NC(=O)c2sccc2C)CC1
  ·, 0.5%, 2%, ·
CC(C)C(CCNC1CCN(C)CC1)c1ccc(Cl)cc1 (centres undefined)
  ·, -4.0%, -10%, ?
CCCN1CCN(C(=O)c2ccccc2-c2nc3ccccc3s2)CC1
  3, -0.8%, 12%, 3%
C=CCNS(=O)(=O)c1ccc(N2C(=O)c3ccccc3C2=O)cc1
  0, 3.8%, 0%, 1%
O=C(O)COCC(=O)Nc1ccc(-n2nc(C(F)(F)F)cc2-c2cccs2)cc1
  -3, 0.3%, 11%, -3%
CCC(C)NC(=O)COC(=O)c1csc2c1CCCC2 (centres undefined)
  -2, -0.5%, -10%, -6%
O=C(COc1cccc(Br)c1)Nc1ccc(N2CCOCC2)cc1N1CCOCC1
  ·, -0.6%, 8%, ·
Cc1ccc(S(=O)(=O)c2cccc(S(=O)(=O)N3CCOCC3)c2)cc1S(=O)(=O)N1CCOCC1
  4, 3.1%, 6%, -5%
O=C(CCCC(=O)N/N=C/c1ccccc1C(=O)O)N/N=C/c1ccccc1C(=O)O
  -4, 2.5%, -1%, -2%
COc1ccc(/C(O)=C2\C(=O)C(=O)N(Cc3ccco3)C2c2ccc(OC)cc2OC)cc1 (centres undefined)
  -6, -2.1%, 17%, -3%
Cc1cccc(NC(=O)c2cccs2)n1
  4, -3.7%, -18%, -33%
CCc1nc(Nc2ccc(OC)c(OC)c2)c2nnn(Cc3ccccc3Cl)c2n1
  -5, -12%, ?, 24%

# Additional compounds follow.
# Results follow in this order: GLA inh pH 4.5, Rango complex inh, Rango dissoc inh, miR-21 FLuc
CCOc1ccccc1C(=O)NCC(=O)N(C)Cc1ccccc1C
  ·, 0.2%, -6%, -10%
Cc1nc2cc(N3CCN(C)CC3)c(NC(=O)Cc3ccccc3)cc2c(=O)n1Cc1ccccc1
  3, 7.4%, 1%, -15%
CCCc1nnc(NC(=O)C2CCN(C(=O)c3ccco3)CC2)s1
  ·, -2.4%, 1%, -1%
CCOC(=O)N1CCN(CC(O)COCCC23CC4CC(CC(C4)C2)C3)CC1 (centres undefined)
  -3, 3.8%, 2%, 4%
CC(=O)Nc1ccc(S(=O)(=O)N=S(C)(C)=O)cc1
  10, -3.5%, 0%, -2%
Cc1ccc(CCNC(=O)c2ccc(CS(=O)(=O)c3ccccc3C)o2)cc1
  ·, -2.3%, -2%, -2%
COCCNC(=O)c1cc2nc(-c3ccccc3)cc(C)n2n1
  0, 0.8%, 6%, -13%
O=C(NN1CCN(Cc2ccccc2)CC1)c1ccc(Cl)cc1
  -2, -4.0%, 4%, 3%
COc1ccc(S(=O)(=O)N2CCN(C)CC2c2ccccc2)cc1 (centres undefined)
  ·, -2.2%, -5%, ·
COc1ccc(/C=N\NC(=O)c2ccc(Cn3cc(Br)c([N+](=O)[O-])n3)o2)c(OC)c1C
  -1, 9.0%, 1%, -10%
CCOC(=O)Cc1nnc(Nc2cccc(C)c2)c2ccccc12
  9, 2.6%, 3%, -8%
CCOc1ccc2c(CC)cc(=O)oc2c1OCC
  -4, 1.4%, 2%, -22%
CN(CC(=O)Nc1ccc(N2CCOCC2)cc1)C(=O)CCCOc1ccc(Cl)cc1Cl
  ·, 0.1%, -18%, ·
O=C(Nc1ccc(OC(F)(F)F)cc1)Nc1cccc([N+](=O)[O-])c1
  -9, -5.1%, -15%, 14%
CC(=O)C1(C)C(=O)N(c2ccc(F)cc2)C(=O)N1c1ccc(F)cc1 (centres undefined)
  ·, 1.1%, -9%, ·
Cc1ccc(S(=O)(=O)N2CCC(C(=O)NNC(=O)c3ccncc3)CC2)cc1
  -25, 1.6%, -5%, 1%
O=C(/C=C/c1ccc([N+](=O)[O-])cc1)c1ccccc(=O)c1O
  ·, -4.8%, ?, ·
COC(=O)CSC1=C(C#N)C(c2sccc2C)CC(=O)N1 (centres undefined)
  4, 0.8%, -3%, -7%
Cc1ccc(S(=O)(=O)NC(Cc2ccc(Cl)cc2)C(=O)O)cc1 (centres undefined)
  ·, -0.2%, -2%, 0%
O=C(OCC(=O)N1CCc2ccccc21)c1cccnc1
  -7, -4.2%, 7%, -5%

# Other structures follow.
# Results follow in this order: GLA inh pH 4.5, Rango complex inh, Rango dissoc inh, miR-21 FLuc
COc1ccccc1N=C1SCC(=O)N1c1ccccc1OC
  0, -0.1%, 8%, 2%
COc1ccccc1N(CC(=O)Nc1c(C)n(C)n(-c2ccccc2)c1=O)S(=O)(=O)c1ccccc1
  ·, 0.5%, 15%, ·
CC(=O)N1CCc2c(sc(NC(=O)Cc3ccccc3)c2C#N)C1
  ·, 5.3%, 5%, 5%
FC(F)(F)c1ccc(/C=N/n2c(C3CCCCC3)n[nH]c2=S)cc1
  ·, -0.1%, 1%, 3%
CN(C)c1ccc(CN(CC2CCCO2)C(=O)c2cccs2)cc1 (centres undefined)
  ·, -0.3%, 0%, -4%
Cc1csc(NC(=O)C2CCN(C(=O)CSc3nnc(C)n3Cc3ccccc3)CC2)n1
  -5, -4.1%, 14%, 2%
Cc1occc(=O)c1OCc1ccc(F)cc1
  ·, 4.8%, 0%, -6%
CN(CCOc1ccccc1)C(=O)c1ccc(OC2CCN(C(=O)C3CC3)CC2)cc1
  2, 2.6%, -3%, 10%
O=C(Nc1cnc2ccccc2c1)C1COc2ccccc2O1 (centres undefined)
  -4, -1.0%, 2%, -37%
O=C1NC2=C(C(=O)CCC2)C(c2cccc([N+](=O)[O-])c2)N1 (centres undefined)
  ·, 2.2%, 1%, -1%
CSc1cccc(NC(=O)CN(c2cccc(C)c2)S(C)(=O)=O)c1
  2, -4.0%, -8%, -4%
OC(c1cc(-c2ccc(Cl)cc2)nc2ccccc12)C1CCCCN1 (centres undefined)
  -6, 2.4%, -8%, ?
CCn1c(SCC(=O)Nc2ccc3c(c2)OCCO3)nnc1-c1ccncc1
  ·, -3.1%, 0%, -1%
O=c1c(/C=N/Nc2ccccc2)c(Sc2nnnn2-c2ccccc2)nc2ccccn12
  6, ?, ?, -4%
CCN(C(=O)Cc1c(C(=O)O)n(C)c2ccccc12)c1cc(OC)ccc1OC
  ·, -1.9%, 7%, -2%
O=C(Nc1cccc(Cl)c1)Nc1nnc(-c2ccccc2)o1
  3, -0.3%, 1%, -5%
O=S1(=O)C=C(N2CCOCC2)c2ccccc21
  -2, 0.5%, -25%, -3%
COc1cc(CN2CCN(c3cccc(C)c3C)CC2)cc(Br)c1O
  -16, 0.7%, -1%, 1%
COC(=O)CSc1ncnc2c1sc1nc(N3CCOCC3)c3c(c12)CCCC3
  0, 1.1%, 21%, -5%
O=c1cc(N2CCc3ccccc32)[nH]c(=O)n1-c1ccccc1Cl
  10, -3.5%, -1%, -4%

# (cont.)
# Results follow in this order: GLA inh pH 4.5, Rango complex inh, Rango dissoc inh, miR-21 FLuc
O=C(Nc1cccc(Cl)c1)c1cc(S(=O)(=O)N2CCOCC2)cs1
  ·, 0.0%, 2%, 1%
COC(=O)NC1CSCC1OC(=O)CCN1C(=O)c2ccccc2C1=O (centres undefined)
  -2, -0.5%, 1%, 2%
O=C(NCc1ccc(F)cc1)c1cc(-c2cccs2)on1
  1, -1.6%, -6%, -26%
CC(=O)Nc1c2c(nn1-c1cccc(C)c1)CSC2
  ·, -0.3%, -1%, -1%
CCN(CC(=O)Nc1ccccc1C(F)(F)F)C(=O)Cc1ccc2c(c1)CCC2
  ·, -0.8%, 5%, ·
CCCN1C(=O)C(Cc2nc3ccccc3c(=O)n2C)c2ccccc21 (centres undefined)
  7, 1.3%, -1%, -11%
C=CCN(c1ccccc1C(=O)O)S(=O)(=O)c1ccc(C)cc1
  5, 2.1%, 1%, -11%
CCOc1ccc(-n2ccnc2SCC(=O)NCc2ccc3c(c2)OCO3)cc1
  0, -2.6%, -5%, 3%
CCCCCC1CCC(c2nnc(SCC(C)=O)o2)CC1 (centres undefined)
  9, -0.3%, -5%, 0%
Nc1nc2c(s1)CC(c1ccccc1)CC2 (centres undefined)
  4, ?, 6%, -8%
